KCNQ2 enhance: enhances the rat KCNQ2 potassium channel; O88943; CHO-K1 KCNQ2, FluxOR thallium flux fluorescence; stronger effect = higher value; B-score at 10 µM; 0.54% of 310,000 active;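 active = fluorescence ratio B-score at least 3 SD of library B-scores, with initial fluorescence B-score within 3 SD, cut at about 5.3 in these data; same plate scores as AID 2156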;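 also: B-score of peak minus minimum over baseline fluorescence ratio after K+ and Tl+ stimulus; positive B-score means potentiation of KCNQ2 with more thallium influx and brighter signal; only the inactives scoring about 0 or higher are listed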
Target sequence (O88943 whole entry, looked up): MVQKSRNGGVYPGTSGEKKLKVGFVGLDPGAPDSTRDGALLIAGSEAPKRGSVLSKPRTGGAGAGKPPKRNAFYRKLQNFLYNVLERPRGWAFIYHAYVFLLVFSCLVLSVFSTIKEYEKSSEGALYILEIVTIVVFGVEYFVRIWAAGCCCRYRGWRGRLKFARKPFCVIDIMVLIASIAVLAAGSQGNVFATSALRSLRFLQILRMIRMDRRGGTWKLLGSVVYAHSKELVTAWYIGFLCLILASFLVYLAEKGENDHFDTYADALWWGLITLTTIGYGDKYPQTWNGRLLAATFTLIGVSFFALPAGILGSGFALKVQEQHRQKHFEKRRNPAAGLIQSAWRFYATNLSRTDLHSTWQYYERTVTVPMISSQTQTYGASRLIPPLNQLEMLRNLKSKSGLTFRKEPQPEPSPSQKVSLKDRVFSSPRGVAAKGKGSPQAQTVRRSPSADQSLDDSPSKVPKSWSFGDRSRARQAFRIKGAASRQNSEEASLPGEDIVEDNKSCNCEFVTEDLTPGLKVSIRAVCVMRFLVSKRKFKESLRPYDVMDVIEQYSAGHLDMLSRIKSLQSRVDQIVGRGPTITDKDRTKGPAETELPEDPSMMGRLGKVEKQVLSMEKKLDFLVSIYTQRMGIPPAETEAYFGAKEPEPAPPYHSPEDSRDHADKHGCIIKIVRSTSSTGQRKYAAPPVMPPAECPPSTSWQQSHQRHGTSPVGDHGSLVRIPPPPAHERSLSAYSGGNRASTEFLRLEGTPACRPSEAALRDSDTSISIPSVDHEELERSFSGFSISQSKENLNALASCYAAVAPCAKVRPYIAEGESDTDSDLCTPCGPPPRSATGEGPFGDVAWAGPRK
KCNQ2 enhance baseline: second read-out of KCNQ2 enhance, no call of its own (marks repeat the call); B-score; compound at 10 µM; measured here: initial fluorescence intensity artifact check;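 brightness before thallium and not channel activity; 0 = typical well and far values either way flag optical interference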
An asterisk follows results filed as active.

SMILES | KCNQ2 enhance | KCNQ2 enhance baseline
COCCn1c(N)c(C(=O)NS(=O)(=O)c2ccc(C)cc2)c(=O)[nH]c1=O | 0.62 | -0.09
COc1ccc(S(=O)(=O)N(CC(=O)NC2CC3CCC2C3)c2ccccc2OC)cc1 (centres undefined) | 0.67 | 0.61
NNC(=O)COc1ccc(-c2nccc(-c3ccc(F)cc3)n2)cc1 | 0.1 | -0.57
CC1=C(C)CC(C(=O)NNC(=O)c2cccc(Cl)c2)C(C(=O)O)C1 (centres undefined) | 0.07 | 1.3
Cc1[nH]nc2nc(SCC(=O)NCCC3=CCCCC3)n(-c3ccc(Br)cc3)c(=N)c12 | 1.3 | 0.39
Cc1c(C(=O)NCCn2ccc3ccccc32)cccc1[N+](=O)[O-] | 0.85 | -1.6
COc1cc(C(=O)NCCCCc2ccccc2)cc(OC)c1OC | 0.7 | 0.27
O=C(CCSCCc1ccccn1)Nc1cc(F)ccc1F | 0.01 | 0.92
CCOCCCNC(=S)N1CCN(Cc2ccco2)CC1 | 1.7 | 0.27
CCCCOc1ccc(N(CC(=O)NC(C)(C)CC)C(=O)CCC(=O)Nc2ccccn2)cc1 | 0.37 | -3.1
CCC(C(=O)NC1CC(C)(C)NC(C)(C)C1)c1ccccc1 (centres undefined) | 0.21 | 1.2
CCN(CC)S(=O)(=O)c1ccc(NC(=O)c2cccc3c2C(=O)N(CCOC)C3)cc1 | 1.5 | 0.12
Cc1c(F)cccc1NS(=O)(=O)c1ccc2c(c1)c(=O)n(C)c(=O)n2C | 1.3 | -0.96
CCSc1nc2sc3c(c2c(=O)n1-c1ccc(C)cc1)CCN(C)C3 | 0.33 | -1.4
CCc1ccc(CNC(=O)C2CC(=O)N(C3CCCC3)C2)cc1 (centres undefined) | 1.3 | 0.07
COC(=O)c1c(-c2ccc(OC)cc2)oc2ccccc12 | 0.79 | 0.58
CC(OC(=O)c1ccc(NC(=O)CC#N)cc1)C(=O)NC(=O)NC1CCCCC1 (centres undefined) | 1.3 | 0.33
ONC(=Nc1ccc(Cl)cc1)c1ccccc1Cl | 1.6 | -1.3
CCCCN(C(=O)c1cccc(S(=O)(=O)N2CCN(C)CC2)c1)c1c(N)n(CCCC)c(=O)[nH]c1=O | 0.07 | -0.02
CCOC(CCc1c(C)nc(NC(C)=O)[nH]c1=O)OCC | 0.2 | -1.7

14 structures already listed, sorted by formula weight, rising.
SMILES | KCNQ2 enhance | KCNQ2 enhance baseline
ONC(=Nc1ccc(Cl)cc1)c1ccccc1Cl | 1.6 | -1.3
CCOC(CCc1c(C)nc(NC(C)=O)[nH]c1=O)OCC | 0.2 | -1.7
CCC(C(=O)NC1CC(C)(C)NC(C)(C)C1)c1ccccc1 (centres undefined) | 0.21 | 1.2
CCOCCCNC(=S)N1CCN(Cc2ccco2)CC1 | 1.7 | 0.27
Cc1c(C(=O)NCCn2ccc3ccccc32)cccc1[N+](=O)[O-] | 0.85 | -1.6
NNC(=O)COc1ccc(-c2nccc(-c3ccc(F)cc3)n2)cc1 | 0.1 | -0.57
CCSc1nc2sc3c(c2c(=O)n1-c1ccc(C)cc1)CCN(C)C3 | 0.33 | -1.4
COCCn1c(N)c(C(=O)NS(=O)(=O)c2ccc(C)cc2)c(=O)[nH]c1=O | 0.62 | -0.09
CC(OC(=O)c1ccc(NC(=O)CC#N)cc1)C(=O)NC(=O)NC1CCCCC1 (centres undefined) | 1.3 | 0.33
COc1ccc(S(=O)(=O)N(CC(=O)NC2CC3CCC2C3)c2ccccc2OC)cc1 (centres undefined) | 0.67 | 0.61
CCN(CC)S(=O)(=O)c1ccc(NC(=O)c2cccc3c2C(=O)N(CCOC)C3)cc1 | 1.5 | 0.12
CCCCOc1ccc(N(CC(=O)NC(C)(C)CC)C(=O)CCC(=O)Nc2ccccn2)cc1 | 0.37 | -3.1
Cc1[nH]nc2nc(SCC(=O)NCCC3=CCCCC3)n(-c3ccc(Br)cc3)c(=N)c12 | 1.3 | 0.39
CCCCN(C(=O)c1cccc(S(=O)(=O)N2CCN(C)CC2)c1)c1c(N)n(CCCC)c(=O)[nH]c1=O | 0.07 | -0.02

Remaining list, next part.
SMILES | KCNQ2 enhance | KCNQ2 enhance baseline
CNC(=S)N/N=C(\C)c1cccc([N+](=O)[O-])c1 | 1.2 | -0.91
COc1ccccc1NC(=O)CN1CC(=O)Nc2ccccc21 | 0.71 | 0.48
O=C(/C=C/c1cccc(F)c1)NC1CCN(Cc2ccccc2)CC1 | 0.69 | -0.13
CCC(C)N1CNc2c(c(=O)[nH]c(=S)n2-c2cccc(C)c2)C1 (centres undefined) | 0.54 | 1.3
Cc1c2cnn(CC(=O)NCCCN3CC(C)CC(C)C3)c(=O)c2c(C)n1Cc1ccccc1Cl (centres undefined) | 1.7 | -0.31
COc1ccccc1N1CCN(C(=O)Cc2cccs2)CC1 | 0.23 | -2
CCCC(=O)Nc1nc(C)c(-c2csc(Nc3ccc(Cl)cc3)n2)s1 | 0.68 | -0.14
O=C(c1cncc(Br)c1)N1CCCc2ccccc21 | 0.39 | -1.4
COc1ccc(CC(=O)NC(C)c2nnc(SCCOc3ccc(OC)cc3)n2C)cc1 (centres undefined) | 1 | -5.2
COCCCN(CC(=O)Nc1ccc(N2CCOCC2)cc1)S(=O)(=O)c1ccccc1 | 3.3 | -1.1
CC(=O)c1ccc(NC(=O)N2CCCC(C(=O)c3ccc4c(c3)OCO4)C2)cc1 (centres undefined) | 2.8 | 0.19
CCCC(=O)Nc1c2c(nn1-c1ccc([N+](=O)[O-])cc1)CS(=O)(=O)C2 | 0.1 | -2.4
CN(C(=O)COC(=O)c1cn(-c2ccccc2)nc1-c1ccccc1)C1CCS(=O)(=O)C1 (centres undefined) | 0.06 | -0.93
Cc1ccc(NC(=O)C2CCCN(c3cnccn3)C2)c(C)c1 (centres undefined) | 1.3 | -1
CCOC(=O)N1CCC(N2C(=O)c3ccccc3C2=O)CC1 | 0.22 | 0.7
O=C(CSc1nc2ccccc2[nH]1)NCCc1ccc(Cl)cc1 | 1.2 | -0.14
CCCc1cc(=O)oc2c(C)c(OCC(=O)N3CCC[C@@H]3C(=O)O)ccc12 | 1.7 | -0.62
N#CCC1c2ccccc2CCN1C(=O)Nc1ccc(C(F)(F)F)cc1 (centres undefined) | 0.18 | 0.42
O=S1(=O)CCC(NC(=S)Nc2ccc(Cl)cc2)C1 (centres undefined) | 0.33 | 0.31
O=C(CSc1cn(CC(=O)N2CCOCC2)c2ccccc12)N1CCOCC1 | 0.1 | 0.02
CC(C)C(=O)Nc1ccc(NC(=O)c2cccc(F)c2)cn1 | 0.57 | 1.1
CCOc1ccc(C(C)=O)cc1CSC(=N)N | 0.92 | -0.7
CCOc1ccccc1CN1CCC(CO)(CCOc2ccccc2)CC1 | 0.77 | 1.3
CCCCNC(=O)CCCCCn1c(=O)[nH]c2cc(OC)c(OC)cc2c1=O | 1.5 | -0.26
Cc1ccc(NC(=O)CSc2nnc3ccc(-c4cccnc4)nn23)cc1 | 1.9 | 1.2
Cc1ccc(-c2ccc(CCC(=O)O)n2NC(=O)c2ccco2)cc1 | 0.26 | 0.81
Cc1ccc(NC(=O)Nc2cc(Cl)ccc2C2COC(=O)C2=N)cc1 (centres undefined) | 0.05 | 0.6
Cc1c(Cl)c([N+](=O)[O-])nn1CCCC(=O)Nc1cccc(O)c1 | 3.1 | -2.9
O=C1C2C3C=CC(C3)C2C(=O)N1c1cccc2ccccc12 (centres undefined) | 0.4 | -1.4
O=C(NC1CC1)C1CCN(C2CCN(C(=O)CSc3ccccc3)CC2)CC1 | 0.13 | 0.87
C=CCNC(=O)/C(C#N)=C/c1c(N2CC(C)OC(C)C2)nc2ccccn2c1=O (centres undefined) | 0.71 | 3.1
CCc1noc(N)c1C(=O)Nc1ccc(Cl)cc1 | 0.39 | 0.65
COc1ccccc1-c1ccc(Nc2ccc(C(=O)N3CCOCC3)cc2)nn1 | 0.6 | 1.6
CCOC(=O)CSc1nc2c(sc(=S)n2-c2ccc(OCC)cc2)c(=O)[nH]1 | 1.6 | 0.2
COc1ccc2[nH]c(C)c(CCNC(=S)Nc3cccc(C)c3C)c2c1 | 0.52 | 4.2
CC(=O)c1sc(-c2ccccc2)nc1C | 0.91 | 0.24
COCCNC(=S)N/N=C/c1c(C)[nH]c2ccccc12 | 0.17 | -1.2
Cn1c(=O)n(CC(=O)O)c(=O)c2c1nc1n2CCCN1CCc1ccccc1 | 0.11 | -0.03
O=C(C1CCCC1)N1CCC(CO)(Cc2ccccc2Cl)CC1 | 1.3 | 0.3
N#CCCNS(=O)(=O)c1ccc(C(=O)OCCCOC(=O)c2ccc(S(=O)(=O)NCCC#N)cc2)cc1 | 0.23 | 0.81
O=C(NCc1ccccc1)/C(=C\c1ccccc1)NC(=O)c1ccco1 | 0.09 | 0.02
Cc1ccc(NC(=S)NCc2ccccc2)c(C)c1 | 2.9 | -0.14
COc1cccc(CNS(=O)(=O)c2ccc(S(=O)(=O)NC3CC3)cc2)c1 | 0.41 | 1.3
Nc1ncnc(Nc2ccc(S(N)(=O)=O)cc2)n1 | 0.05 | 1.4
Cc1ccc(C)c2[nH]c(=O)c(CCNS(=O)(=O)c3ccccc3)cc12 | 0.66 | -2
CCOc1ccc(CCNC(=O)c2ccc(CS(=O)Cc3ccc(Cl)cc3)o2)cc1OCC (centres undefined) | 0.21 | 1.6
N#C/C(=C\c1c(N2CCCCCC2)nc2ccccn2c1=O)C(=O)NC1CCS(=O)(=O)C1 (centres undefined) | 0.21 | 0.31
O=C(NNC1=Nc2ccccc2SC1)c1ccc(Cl)cc1 | 0.28 | 1.9
COc1cccc(CN2CCCCC2C(=O)O)c1 (centres undefined) | 0.97 | 0.73
CCC(=O)N1CCCc2cc(S(=O)(=O)N3CCN(c4ncccn4)CC3)ccc21 | 0.63 | -1.3
COC(=O)c1cc(OC)c(OC)cc1NC(=O)CSc1nnc(-c2cccnc2)n1C | 0.42 | 0.26
O=C(CCCC(=O)NCC1CCCO1)NCC1CCCO1 (centres undefined) | 1.2 | -0.81
O=C(c1cc(COc2ccc(F)c(F)c2)on1)N1CCOCC1 | 1.2 | 0.23
CCOc1cc(/C=C(/NC(C)=O)C(=O)O)cc(Cl)c1OCc1ccc(Br)cc1 | 1.3 | 1.9
C#CCNC(=O)C1=C[C@@H](C2CC2)[C@H](CCCO)[C@@H](OCC)O1 | 0.32 | 0.18
CN1C2CCC1CC(OC(c1ccccc1)c1ccccc1)C2 (centres undefined) | 0.07 | -0.01
Cc1cc(C)c(NC(=O)/C=C\C(=O)O)c([N+](=O)[O-])c1 | 1.4 | 0.65
CCOC(=O)c1cc(CC)sc1NC(=O)c1ccc([N+](=O)[O-])c(N2CCOCC2)c1 | 0.68 | -0.36
O=C(Cc1ccc(F)cc1)Nc1c(C(=O)N2CCN(c3ncccn3)CC2)oc2ccccc12 | 0.04 | -0.99
O=C(CNC(=O)c1ccc(Br)o1)Nc1ccccc1 | 0.46 | -0.99

(further entries)
SMILES | KCNQ2 enhance | KCNQ2 enhance baseline
COc1cc(NC(=O)c2ccnn2C)c(OC)cc1Cl | 0.95 | -0.27
CCNC(=O)CN(CCc1ccccc1)S(C)(=O)=O | 1.3 | 1.6
CCC(=O)Nc1cccc(NC(=O)CSc2nnnn2Cc2ccccc2)c1 | 0.54 | 0.18
O=C(COc1ncnc2ccccc12)NCc1ccc2c(c1)OCO2 | 0.62 | 2.6
CC(C)(C)c1ccc(NC(=O)NCc2ccco2)cc1 | 3.3 | 1.2
COc1ccc(NC(=O)Cn2c(-c3ccccc3)cn(-c3ccc(C)cc3)c2=O)cc1 | 0.84 | 0.68
Cc1ccc(Oc2ncnc(N)c2[N+](=O)[O-])cc1C | 1.6 | -0.51
Nc1cc(C(=O)OCC(=O)NCCNC(=O)COC(=O)c2ccc(Cl)c(N)c2)ccc1Cl | 0.71 | 1.9
O=C(NC1CCCCC1)c1cc(-c2ccccc2Cl)on1 | 0.07 | 1.8
COc1ccccc1NS(=O)(=O)c1cc(C(=O)NCCC(C)C)ccc1F | 1 | -1.1
O=C(CN(C(=O)c1csnn1)c1ccc(F)cc1)NCCc1ccccc1 | 0.78 | -1.9
COCCCNCCC(CCC(C)C)c1ccc2c(c1)OCO2 (centres undefined) | 0.03 | -0.89
NC(Cc1ccc(Oc2ccc(O)cc2)cc1)C(=O)O (centres undefined) | 0.92 | 0.29
COc1ccccc1C(=O)Nc1nnc(-c2ccc3c(c2)CCCC3)o1 | 3 | 1.2
CCNc1nc(N)nc(Oc2ccc(OCCOc3ccccc3)nn2)n1 | 0.72 | 2.3
COc1ccccc1NC(=O)CN1CCN(CC(=O)Nc2ccc(OC)c(OC)c2)CC1 | 1.4 | 1.2
CCCn1c(N2CCN(CC(=O)c3c(C)n(C)c4ccc(OC)cc34)CC2)nc2c1c(=O)[nH]c(=O)n2C | 1.7 | -2.7
COc1ccc(NC(=O)Nc2cc(C)ccc2F)cc1OC | 0.8 | -0.24
COc1cc(/C=C2\SC(=S)N(CCC(=O)Nc3ccc(O)cc3)C2=O)cc(OC)c1OC | 0.51 | -0.64
CCN(CC)c1ccc(NC(=O)c2ccc3c(c2)OCO3)c(C)c1 | 2.9 | 0.76
CC(=O)Nc1ccc(S(=O)(=O)NCCC(=O)Nc2ncccc2C)cc1 | 0.78 | -0.51
Cc1ccc(S(=O)(=O)N2CCN(C(=O)c3ccccc3)CC2)cc1 | 0.18 | -0.54
O=C(NNc1cccc(Cl)n1)c1ccc(Cl)cc1Cl | 1.1 | -1.7
CCOC(=O)c1ccc(NS(=O)(=O)c2cc(C)ccc2OC)cc1 | 0.99 | -2.1
COC(=O)C1=C(C)NC(=O)CC1c1ccccc1OC (centres undefined) | 1.5 | -0.49
O=C(COC(=O)CSc1ccccc1)NCCNC(=O)COC(=O)CSc1ccccc1 | 0.88 | -0.76
O=S(=O)(NC1CC1)c1ccc2c3c(cccc13)CC2 | 0.37 | 0.82
Cc1cccc2sc(NNC(=O)c3ccc4c(c3)OCCO4)nc12 | 5.3 | 0.02
NC(=O)/C(=C/c1ccc2c(c1)OCO2)NC(=O)c1ccco1 | 1.3 | -0.31

Source: PubChem

Some of the compounds tested. The share of hits here may be higher or lower than overall.
